AF4-AF9 inh – inhibitors of AF4 peptide binding to AF9, primary screen, biochemical, AlphaScreen, biotin-AF4 peptide, FLAG-AF9, single point; Protein AF-9 (Homo sapiens), P42568; inhibition, % at 10 µM; 0.47% of 350,000 active; AID 651704, 2012;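 active means every replicate reaching a set inhibition limit, whatever the replicate mean, cut at about 25% in these data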;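 further: 0% = plate neutral control median and 100% = total signal loss; the record names both 10 and 1 µM as test concentration; the first replicate is given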
Target sequence (P42568 whole entry, looked up): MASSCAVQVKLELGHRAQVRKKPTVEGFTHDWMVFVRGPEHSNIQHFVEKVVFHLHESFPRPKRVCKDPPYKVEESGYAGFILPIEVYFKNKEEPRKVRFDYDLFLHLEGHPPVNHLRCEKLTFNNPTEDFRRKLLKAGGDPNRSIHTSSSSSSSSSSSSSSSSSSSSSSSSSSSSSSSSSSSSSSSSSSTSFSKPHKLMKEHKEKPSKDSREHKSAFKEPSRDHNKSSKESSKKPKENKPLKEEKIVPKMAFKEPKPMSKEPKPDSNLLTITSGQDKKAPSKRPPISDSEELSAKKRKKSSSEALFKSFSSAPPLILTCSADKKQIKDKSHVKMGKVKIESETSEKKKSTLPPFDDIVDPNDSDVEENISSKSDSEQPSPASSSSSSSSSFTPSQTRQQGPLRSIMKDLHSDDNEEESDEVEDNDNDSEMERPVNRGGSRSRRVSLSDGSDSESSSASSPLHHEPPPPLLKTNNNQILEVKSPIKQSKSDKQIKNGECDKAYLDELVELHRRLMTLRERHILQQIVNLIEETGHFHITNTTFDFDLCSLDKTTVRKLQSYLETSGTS
rRNA inh HTS – reduced GFP signal of wild-type E. coli, primary screen, bacterial rRNA inhibitor project, GFP/RFP fluorescence, OD600, single point | E. coli WT GFP vs humanized-ribosome RFP mutants, 24 h; stronger effect = lower value; DMSO median 0, no signal -100 | GFP signal change (wild-type ribosome), % (test concentration not listed) | 1.6% of 350,000 active | AID 720706, 2013;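 active means significant combined selectivity score with lowered wild-type GFP, culture density cut under 30%, mutant RFP and density less affected; inactive means any of these conditions unmet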; further: one replicate is shown; some compounds called inactive have numbers as strong as hits
rRNA inh HTS OD600 – also measured in rRNA inh HTS; calls as there; OD600 change, %; measured here: OD600 growth;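 optical density of the mix in the first replicate; 0 = DMSO median and -100 = no signal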
rRNA inh HTS RFP – further read-out of rRNA inh HTS, marked with its call; RFP signal change, %; measured here: RFP humanized mutant strains;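 first replicate; 0 = DMSO median and -100 = no signal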
* marks the source's active call; other numbers are inactive results; & = joins results of further samples. A portion of the library; count on the stated rates, not on these rows.

SMILES	AF4-AF9 inh	rRNA inh HTS	rRNA inh HTS OD600	rRNA inh HTS RFP
COc1ccc2c3c([nH]c2c1)[C@@H](CO)N(C(=O)NC(C)C)CC31CCN(Cc2ccccc2)CC1	13	-3	9	-1.1
CO[C@@H]1CN(C)C(=O)c2ccc(NC(C)=O)cc2OC[C@@H](C)N(Cc2cccnc2)C[C@H]1C	-9.9	0	-1	-0.6
CC=Cc1ccc2n(c1=O)C[C@@H]1[C@@H](CO)[C@H](C(=O)N(C)C)N(CCC)[C@H]21 (mixture of isomers)	-2.5	3	4	-4.6
O=C(c1cccc(F)c1)N1C[C@H]2[C@@H](c3ccccc31)[C@H](CO)N2C(=O)C1CCCCC1	-2.4	-2	-6	1.1
COCC(=O)N1CC(=O)N2[C@@H](CO)[C@@H](c3ccc(-c4ccccc4C)cc3)[C@@H]2C1	-0.4	0	-14	-1.1
COc1cccc(/C=C/C(=O)OCC(=O)c2ccc(Br)cc2)c1	0.5	2	2	-2.2
COc1ccc(-c2ccc(C3[C@@H]4CN(S(=O)(=O)c5cn(C)cn5)C[C@H]3N4)cc2)cc1 (some centres undefined)	-2.1	-6	-15	-1.7
O=C(C[C@@H]1C=C[C@H](NC(=O)c2ccncc2)[C@@H](CO)O1)NCc1ccncn1	-0.6	1	-1	2.1
O=C(C1CCCC1)N1CC[C@@H]2[C@H](CO)Nc3ccc(-c4cccc(F)c4)cc3[C@@H]21	7.6	-50	-68	-3.2
O=C(C1CCCC1)N1CC(=O)N2[C@@H](CO)[C@@H](c3ccc(C#CCc4ccccc4)cc3)[C@@H]2C1	-1.5	2	9	-0.8
C/C=C/c1ccc([C@@H]2[C@@H](CO)N3C(=O)CN(C(=O)Nc4ccc(OC)cc4)C[C@@H]23)cc1	0.8	-3	4	3.6
O=C(C1CCCC1)N1CC2(C1)[C@H](c1ccccc1)[C@H](CO)N2Cc1ccc(Cl)cc1	1.4	-56	-79	-16
COc1cccc(CN2C[C@@H]3N[C@H](C2)C3c2ccc(-c3ccncc3)cc2)c1 (some centres undefined)	11&2.7	1&-2	8&7	0.2&3.0
C/C=C/c1ccc([C@@H]2[C@H](CO)N3C(=O)CN(S(=O)(=O)c4cccc(F)c4)C[C@@H]23)cc1	-2.0	3	5	4.1
COc1ccc(S(=O)(=O)N[C@@H]2C=C[C@@H](CC(=O)N3CCC(Cc4ccccc4)CC3)O[C@@H]2CO)cc1	-5.7	-3	-26	1.5
O=C(Cc1ccncc1)N1CC(=O)N2[C@H](C1)[C@@H](c1ccc(C3=CCCC3)cc1)[C@@H]2CO	-1.1	2	10	-0.4
CN(C)C(=O)c1ccc(-c2ccccc2[C@H]2[C@@H](CO)N(C(=O)C3CCCC3)[C@H]2C#N)cc1	1.5	5	8	1.9
CN(C)CC(=O)N[C@@H]1CC[C@H](CCNC(=O)C2CC2)O[C@@H]1CO	-4.5	0	2	-2.4
O=S(=O)(c1ccc(F)cc1)N1[C@@H]2CNC[C@H]1C2c1ccc(-c2cccc(F)c2)cc1 (some centres undefined)	-3.8&-6.2	-56&-4	-81&-1	-15&0.8
Fc1cccc(-c2ccc(C3[C@@H]4CN(Cc5cccnc5)C[C@H]3N4)cc2)c1 (some centres undefined)	8.0&6.1	-2&-5	-8&-19	1.3&-2.1
O=C(Nc1ccccc1)N1CC(=O)N2[C@H](C1)[C@@H](c1ccc(C#CC3CC3)cc1)[C@@H]2CO	3.9	-8	-59	27
O=C(NC[C@H]1[C@@H](c2ccccc2)[C@@H](CO)N1Cc1ccccc1)c1ccccn1	-4.8	-3	-1	0.0
CC(C)NC(=O)N(C)C[C@H]1Oc2ccc(NC(=O)CCCN(C)C)cc2CC(=O)N([C@@H](C)CO)C[C@@H]1C	-0.1	5	5	1.8
C[C@H]1CCCCO[C@H](CN(C)Cc2ccccc2)[C@@H](C)CN([C@@H](C)CO)C(=O)c2cc(NS(=O)(=O)c3ccc(F)cc3)ccc2O1	3.6	0	-7	-0.3
O=C(O)C[C@@H]1CC[C@@H](NC(=O)CCN2CCCCC2)[C@@H](CO)O1	-2.3	0	-2	-1.4
O=C(COC(=O)C1CCC1)Nc1cc(S(=O)(=O)N2CCOCC2)ccc1Cl	-1.6	12	13	2.0
C[C@@H]1CCCCO[C@H](CN(C)S(=O)(=O)c2ccc(F)cc2)[C@H](C)CN([C@@H](C)CO)C(=O)c2cc(NC(=O)C3CCCCC3)ccc2O1	-0.1	-7	-8	-0.2
O=C(NC1CCCC1)N1CC(=O)N2[C@H](CO)[C@H](c3ccc(/C=C/c4ccccc4)cc3)[C@@H]2C1	3.0	2	0	-0.1
CCN(C[C@@H]1[C@@H](c2ccccc2)[C@@H](CO)N1CC1CC1)C(=O)c1ccccn1	-2.4	5	8	0.4
O=C(Nc1ccc(F)cc1)N1[C@@H]2CNC[C@H]1C2c1ccc(-c2ccc(F)cc2)cc1 (some centres undefined)	2.8	-55	-79	-13

Single records (already shown). Values in the order: AF4-AF9 inh, rRNA inh HTS, rRNA inh HTS OD600, rRNA inh HTS RFP
O=C(C1CCCC1)N1CC2(C1)[C@H](c1ccccc1)[C@H](CO)N2Cc1ccc(Cl)cc1 is listed with 1.4, -56, -79, -16
COc1cccc(CN2C[C@@H]3N[C@H](C2)C3c2ccc(-c3ccncc3)cc2)c1 (some centres undefined) is listed with 11&2.7, 1&-2, 8&7, 0.2&3.0
O=C(C[C@@H]1C=C[C@H](NC(=O)c2ccncc2)[C@@H](CO)O1)NCc1ccncn1 is listed with -0.6, 1, -1, 2.1

Later entries:
SMILES	AF4-AF9 inh	rRNA inh HTS	rRNA inh HTS OD600	rRNA inh HTS RFP
O=C(Nc1cc(F)ccc1F)N1[C@@H]2CNC[C@H]1C2c1ccc(-c2ccncc2)cc1 (some centres undefined)	-1.3	-1&6	5&18	1.0&-1.6
Cc1ccc(-c2ccc(C3[C@H]4CNC[C@@H]3N4C(=O)NC(C)C)cc2)cc1 (some centres undefined)	1.1&1.2	3&0	-9&6	2.1&-2.5
N#Cc1cccc(-c2ccc([C@H]3[C@@H](CO)N[C@@H]3CNC(=O)C3CCCC3)cc2)c1	2.3	-4	-7	8.8
CC(C)NC(=O)Nc1ccc2c(c1)CC(=O)N([C@@H](C)CO)C[C@H](C)[C@H](CN(C)S(=O)(=O)c1ccc(F)cc1)O2	0.5	-1	1	-2.1
O=C(c1ccc2c(c1)OCO2)N1CC(=O)N2[C@H](CO)[C@@H](c3ccc(-c4ccccc4)cc3)[C@H]2C1	2.5	3	-4	3.5
COc1ccccc1NC(=O)N[C@@H]1C=C[C@H](CC(=O)N[C@H](C)c2ccccc2)O[C@@H]1CO	-3.6	2	1	-0.7
COc1ccccc1-c1ccc(C2[C@H]3CNC[C@@H]2N3S(=O)(=O)c2ccccc2C)cc1 (some centres undefined)	5.4&2.1	-60&-45	-79&-38	-17&-1.0
O=C(c1cnccn1)N1CC(=O)N2[C@@H](CO)[C@H](c3ccc(-c4ccccc4)cc3)[C@@H]2C1	-4.9	2	-3	2.5
CCC(=O)N1CC[C@@H]2[C@H](CO)Nc3ccc(C#Cc4cccnc4)cc3[C@@H]21	-8.9	0	10	-4.6
O=C(C[C@@H]1C=C[C@@H](NS(=O)(=O)c2ccc(F)cc2)[C@@H](CO)O1)NCc1ccccc1F	-5.7	0	8	-3.5
COc1ccc(CN2C[C@@H](C)[C@H](OC)CN(C)C(=O)c3ccc(NC(=O)c4nc5ccccc5s4)cc3OC[C@H]2C)cc1	6.4	-4	1	3.1
CCC(=O)N1[C@H](CO)[C@H](c2ccc(C3=CCCCC3)cc2)[C@H]1CNC1CCCC1	5.5	1	1	0.2
N#C[C@H]1[C@H](c2ccccc2C2=CCCCC2)[C@@H](CO)N1C(=O)Cc1ccncc1	-1.3	-5	-31	-3.9
CC=Cc1ccc2n(c1=O)C[C@H]1[C@H](CO)[C@@H](C(=O)NCCC)[C@@H]2N1C(=O)C1CCC1 (mixture of isomers)	-3.7	0	-4	-0.3
Cc1cc(C)cc(C(=O)NCC(=O)OCC(=O)N2CCCC2)c1	-2.4	12	-1	5.2

In a second layout: entries from further up.
Structure,AF4-AF9 inh,rRNA inh HTS,rRNA inh HTS OD600,rRNA inh HTS RFP
O=C(c1ccc2c(c1)OCO2)N1CC(=O)N2[C@H](CO)[C@@H](c3ccc(-c4ccccc4)cc3)[C@H]2C1,2.5,3,-4,3.5
COc1ccccc1NC(=O)N[C@@H]1C=C[C@H](CC(=O)N[C@H](C)c2ccccc2)O[C@@H]1CO,-3.6,2,1,-0.7
COc1ccccc1-c1ccc(C2[C@H]3CNC[C@@H]2N3S(=O)(=O)c2ccccc2C)cc1 (some centres undefined),5.4&2.1,-60&-45,-79&-38,-17&-1.0

Remaining list, next part:
SMILES	AF4-AF9 inh	rRNA inh HTS	rRNA inh HTS OD600	rRNA inh HTS RFP
Cc1ccc(S(=O)(=O)Nc2ccc3c(c2)C(=O)N([C@H](C)CO)C[C@H](C)[C@H](CN(C)Cc2ccc(C(=O)O)cc2)OCCCC[C@@H](C)O3)cc1	2.0	1	-16	-0.7
O=S(=O)(c1ccccc1)N1[C@@H]2CNC[C@H]1C2c1ccc(-c2cccnc2)cc1 (some centres undefined)	-3.3&-0.5	1&1	0&17	-4.5&0.0
Cc1cc(C)c(CN2CCN(C(=O)Cn3cc(C)c(=O)[nH]c3=O)CC2)c(C)c1	3.0	-1	3	-2.1
COCC(=O)Nc1ccc2c(c1)C(=O)N(C)C[C@@H](OC)[C@@H](C)CN(C)[C@H](C)CO2	0.5	3	2	-3.0
COc1cccc(-c2ccc3c(c2)[C@H]2[C@H](CCN2C(=O)C2CCCCC2)[C@@H](CO)N3)c1	40*	-20	-52	23
C[C@@H]1CCCCO[C@@H](CN(C)C(=O)CCCN(C)C)[C@H](C)CN([C@H](C)CO)C(=O)c2cc(NC(=O)Nc3ccc(F)cc3)ccc2O1	12	6	4	-1.8
CN(C)C(=O)c1ccc(-c2ccccc2[C@H]2[C@@H](C#N)N(C(=O)C3CCCC3)[C@H]2CO)cc1	0.0	8	8	-1.3
C[C@@H]1CN([C@H](C)CO)C(=O)c2cc(NC(=O)CCC(F)(F)F)ccc2O[C@@H]1CN(C)CC1CCCCC1	-3.0	3	6	-2.5
C[C@@H]1CCCCO[C@H](CN(C)Cc2ccc3c(c2)OCO3)[C@H](C)CN([C@@H](C)CO)C(=O)c2cc(NS(=O)(=O)c3ccc(Cl)cc3)ccc2O1	15	-29	-61	28
O=C(c1ccc(F)cc1)N1CC(=O)N2[C@H](C1)[C@H](c1ccc(C3=CCCC3)cc1)[C@@H]2CO	-0.5	-2	-7	-2.5
NCC[C@@H]1CC[C@H](NC(=O)C2CC2)[C@H](CO)O1	2.2	0	-2	-2.2
C[C@@H]1CCCCO[C@H](CN(C)Cc2ccccc2)[C@@H](C)CN([C@H](C)CO)C(=O)c2cc(N(C)C)ccc2O1	0.7	0	0	-4.9
CCCC#Cc1cnc2c(c1)C(=O)N([C@H](C)CO)C[C@@H](C)[C@@H](CN(C)C(=O)c1cccnc1)O2	0.0	-2	-2	0.9
CN(C)C(=O)c1ccc(-c2ccc(C3[C@H]4CNC[C@@H]3N4C(=O)NC3CCCC3)cc2)cc1 (some centres undefined)	9.0	2	12	-1.5
O=C(c1cccnc1)N1CC(=O)N2[C@H](CO)[C@@H](c3ccc(-c4cccnc4)cc3)[C@@H]2C1	-2.0	3	12	0.1
COc1ccc(-c2ccccc2[C@@H]2[C@H](C#N)N(C(=O)C3CCCC3)[C@H]2CO)cc1	-1.7	-4	-4	0.1
C[C@H]1CCCCO[C@@H](CN(C)S(=O)(=O)c2ccc(F)cc2)[C@@H](C)CN([C@@H](C)CO)C(=O)c2cc(NC(=O)C3CCCCC3)ccc2O1	1.1	-3	-11	4.1
O=C(NC1CCCCC1)N1CC(=O)N2[C@H](CO)[C@@H](c3ccc(/C=C/c4ccccc4)cc3)[C@@H]2C1	0.9	-5	-30	25
O=C(Nc1cccc(F)c1)N1CC(=O)N2[C@H](CO)[C@@H](c3ccc(-c4ccc(F)cc4)cc3)[C@H]2C1	-6.2	-36	-68	-4.1
CCNC(=O)[C@H]1[C@H](CO)[C@H]2Cn3c(ccc(C4=CCCC4)c3=O)[C@@H]1N2Cc1ccncc1	-1.2	4	8	2.2
Cc1noc(C)c1NC(=O)Nc1ccc2c(c1)C(=O)N([C@H](C)CO)C[C@@H](C)[C@H](CN(C)S(=O)(=O)c1ccc(F)cc1)OCCCC[C@@H](C)O2	2.6	1	-1	1.9
COc1ccccc1NC(=O)N[C@H]1CC[C@H](CCNS(=O)(=O)c2ccc(C)cc2)O[C@H]1CO	-2.7	-5	0	-0.3
O=C(C[C@@H]1CC[C@@H]2[C@H](COC[C@H](O)CN2CC2CCCC2)O1)NCC1CC1	-1.2	0	2	0.8
CCS(=O)(=O)N1CC(=O)N2[C@H](CO)[C@@H](c3ccc(C#CCc4ccccc4)cc3)[C@H]2C1	8.7	2	1	-2.3
O=C(CN1CCOCC1)N1CC(=O)N2[C@@H](CO)[C@H](c3ccc(-c4ccccc4)cc3)[C@@H]2C1	-2.9	3	10	-1.4
